# From PubChem BioAssay
# Mtb MbtI inh: blocks the Mycobacterium tuberculosis siderophore enzyme MbtI. P9WFX0. purified MbtI enzyme, fluorescence intensity read-out. inhibition, %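 (about 17 µg/mL by stock and volumes)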. 0.89% of 100,000 active;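 active = above 50% in both replicates, above 80% if mildly self-fluorescent; inactive = the rest, strongly fluorescent compounds included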;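 note: 0% = mean of negative and 100% = mean of positive controls; one replicate is shown; some compounds called inactive have numbers as strong as hits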
# Target sequence (P9WFX0 whole entry, looked up): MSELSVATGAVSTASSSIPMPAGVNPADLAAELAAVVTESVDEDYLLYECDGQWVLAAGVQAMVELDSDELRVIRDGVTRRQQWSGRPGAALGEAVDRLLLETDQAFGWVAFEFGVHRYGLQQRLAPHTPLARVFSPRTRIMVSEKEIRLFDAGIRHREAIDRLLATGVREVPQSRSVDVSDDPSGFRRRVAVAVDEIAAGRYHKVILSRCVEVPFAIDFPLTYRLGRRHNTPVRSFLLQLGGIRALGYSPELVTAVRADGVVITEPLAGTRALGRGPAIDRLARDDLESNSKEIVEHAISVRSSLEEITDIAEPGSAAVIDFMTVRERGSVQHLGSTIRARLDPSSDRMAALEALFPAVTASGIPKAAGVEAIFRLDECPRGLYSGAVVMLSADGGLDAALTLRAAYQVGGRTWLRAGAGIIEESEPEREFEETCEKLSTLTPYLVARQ
# Mtb MenB inh: inhibitors of Mycobacterium tuberculosis MenB enzyme. 0.43% of 100,000 active. MenB enzyme assay, absorbance read-out; some hits fall short of the stated cut. P9WNP5. inhibition, %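 (about 12 µg/mL by stock and volumes)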;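 active = mean of two replicates above 30%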;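 note: 0% = no compound and 100% = wells with inactive enzyme; the first replicate is given; strong numbers were not always called active; inactives centre near -10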
# Target sequence (P9WNP5 whole entry, looked up): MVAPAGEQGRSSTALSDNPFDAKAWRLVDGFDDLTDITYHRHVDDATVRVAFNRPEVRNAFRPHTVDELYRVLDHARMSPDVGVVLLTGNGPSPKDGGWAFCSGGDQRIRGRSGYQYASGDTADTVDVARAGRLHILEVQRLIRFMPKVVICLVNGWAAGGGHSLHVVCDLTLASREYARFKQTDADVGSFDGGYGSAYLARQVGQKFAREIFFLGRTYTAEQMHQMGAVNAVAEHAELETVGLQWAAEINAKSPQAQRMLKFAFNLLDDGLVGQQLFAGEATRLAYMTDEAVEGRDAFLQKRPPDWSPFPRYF
# Polio RdRp inh: poliovirus RNA polymerase inhibition | poliovirus polymerase elongation, fluorescence polarization; active compounds read low | % elongation, % (compound at 16.7 µg/mL) | AID 588519 | 0.66% of 150,000 active; in the data active = % elongation below about 90%; note: some results filed as inactive read as strong as hits
# Polio RdRp inh intensity: further read-out of Polio RdRp inh, marked with its call; % elongation; measured here: total intensity read-out; formula for this scale not given here;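 total fluorescence in place of polarization; lower means less elongation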
# Starred values were filed as active, the others as inactive; i = inactive; · = no result given.
SMILES	Mtb MenB inh	Polio RdRp inh	Mtb MbtI inh	Polio RdRp inh intensity
CC(C)CC(OC(=O)c1cccs1)C(=O)NCc1cccs1 (stereo unspecified)	-43	101	4	101
COC(=O)CSc1nc(C)cc(C)n1	6	101	1	106
Cc1cc(=O)[nH]c(SCC(=O)c2ccc(F)cc2)n1	3	102	0	107
COc1cc2c(cc1OC)CN(C(=O)C1CCCN1S(=O)(=O)c1ccc(C)cc1)CC2 (stereo unspecified)	3	101	-10	101
CC(C)C(C)NC(=O)Nc1ccc(Cl)cc1 (stereo unspecified)	-8	101	-11	102
C/C(=N\NC(=O)c1cccnc1)C1COc2ccccc2O1 (stereo unspecified)	-3	100	-8	100
CC1CCCN(C(=O)CCS(=O)(=O)Cc2ccccc2)C1 (stereo unspecified)	-10	101	-1	100
C=CCc1cccc(CNc2ccc(C(=O)OCC)cc2)c1O	-16	100	-62	103
N#Cc1cc(C#N)c(SCc2cc(=O)n3cc(Br)ccc3n2)nc1N	-8	108	-17	115
CCC1NC(=S)NC(C)=C1C(=O)c1ccccc1 (stereo unspecified)	-13	96	·	104
CCOC(=O)c1c(NC(=O)COC(=O)c2ccc(Br)o2)sc(C)c1CC	-21	112	-4	106
Cc1ccc(S(=O)(=O)N(CC(=O)N2CCCCCC2)c2ccc(C)c(Cl)c2)cc1	-9	100	4	101
CCC1CCCN1Cn1cnc2c([nH]c3ccc(C)cc32)c1=O (stereo unspecified)	-5	104	184	106
O=C1C2CC=CCC2C(=O)N1c1ccc(Cl)cc1 (stereo unspecified)	7	102	3	99
CCOC(=O)C1CCN(C(=O)COC(=O)c2c(C)c(CC)nc3ccccc23)CC1	13	100	0	103
CCSc1nnc(NC(=O)C2CC=CCC2C(=O)O)s1 (stereo unspecified)	3	101	·	110
CCn1c(CNC(=O)c2ccc3c(c2)OCO3)nnc1SCC(=O)NC1CCCCC1	-79	104	33	104
Cc1cccc(Nc2cc(N3CCOCC3)ncn2)c1	8	100	4	103
CN(Cc1ccccc1)C(=O)COC(=O)c1cc(=O)c2ccccc2o1	4	101	-4	101
CC(C)(C)NC(=O)N1CCC(C(=O)c2ccccc2)CC1	-10	102	11	104
CN(C)S(=O)(=O)c1cccc(C(=O)NC2CCCCCC2)c1	11	102	25	104
COc1cc(S(=O)(=O)Nc2cc3oc4ccccc4c3cc2OC)ccc1NC(C)=O	-8	99	-15	102
O=c1cc(C(F)(F)F)nc2cc(-c3ccccc3)[nH]n12	-15	103	-111	103
NNC(=O)CS(=O)(=O)c1ccc(Cl)cc1	-7	109	-2	114
O=C(O)c1ccc2c(c1)NC(=O)C(CSCc1cccc(F)c1)N2 (stereo unspecified)	-36	105	62	121
Cn1nnc2cc(NC(=O)NC3CCCCC3)ccc21	-28	100	-5	103
CC1CCCC(NC(=O)CCCn2c(=O)c3cccn3c3cccnc32)C1C (stereo unspecified)	8	100	1	102
COc1cccc(/C=C/C(=O)Nc2ccc3nc4n(c(=O)c3c2)CCCC4)c1OC	-2	98	6	103
C=CC1C[C@H]2CCC1C[C@H]2[C@H](O)c1ccnc2ccc(OC)cc12 (stereo partly specified)	1	103	·	102
CC(C)C(=O)/C(C#N)=N/Nc1ccc(F)cc1	-135	101	30	99

# Structures above with a Cl atom, in the order listed:
SMILES	Mtb MenB inh	Polio RdRp inh	Mtb MbtI inh	Polio RdRp inh intensity
CC(C)C(C)NC(=O)Nc1ccc(Cl)cc1 (stereo unspecified)	-8	101	-11	102
Cc1ccc(S(=O)(=O)N(CC(=O)N2CCCCCC2)c2ccc(C)c(Cl)c2)cc1	-9	100	4	101
O=C1C2CC=CCC2C(=O)N1c1ccc(Cl)cc1 (stereo unspecified)	7	102	3	99
NNC(=O)CS(=O)(=O)c1ccc(Cl)cc1	-7	109	-2	114

# Next part:
SMILES	Mtb MenB inh	Polio RdRp inh	Mtb MbtI inh	Polio RdRp inh intensity
Cc1cccc2nc(CSc3nncn3-c3ccccc3F)cc(=O)n12	-46	103	8	104
O=C1/C(=C/c2ccccc2)SC(=S)N1C1CCS(=O)(=O)C1 (stereo unspecified)	6	102	·	106
COc1ccc(N2C(=O)c3ccccc3S2(=O)=O)cc1	-2	102	-5	104
CCN1CCN(C(=O)c2cn(C)nc2-c2ccc3c(c2)OCCCO3)CC1	4	99	0	113
COc1ccc2c(c1)C(=O)N(c1ccccc1C)C(=O)C2(C)C	6	101	i	97
Cc1ccc2oc(=O)c3cnn(CC(=O)NCC4(c5ccccc5)CCCC4)c3c2c1	2	101	-1	99
O=S(=O)(/C=C/c1ccccc1)Nc1ccccc1	-27	104	8	99
Cc1csc(=O)n1CC(=O)OCc1nc2ccccc2s1	-15	104	9	117
CCOC(=O)c1c(C)[nH]c(C)c1C(=O)CSc1ncccn1	-16	101	9	105
NS(=O)(=O)c1ccc(CNS(=O)(=O)c2cccc3nonc23)cc1	-5	101	16	102
CC1CCCCC1NC(=O)Cn1nc(C(=O)O)c2ccccc2c1=O (stereo unspecified)	-31	98	-3	93
COC(=O)c1sc(=S)n(-c2ccc(Cl)cc2)c1C	-1	102	-2	104
Cc1cc(C)n(-c2nc3cc(Cl)c(Cl)cc3n3c(C)nnc23)n1	-11	102	42	97
CC(=O)Nc1cccc(C(=O)N2CCN(c3ccccc3)CC2)c1	-3	102	-1	102
O=C(CCCn1c(=O)oc2ccccc21)Nc1cccnc1	-39	104	-8	96
Cn1c(-c2ccc(F)cc2)nc2ccccc21	·	102	16	103
Cc1ccc(/C=C2/C(=O)NC(=O)N(C3CCCCC3)C2=O)cc1	3	99	6	104
[O-][n+]1onc2c1CCc1nnccc1-2	-9	100	0	102
CC(C)[C@H](NC(=O)c1ccccc1)C(=O)N1CCN(c2ccccc2)CC1	3	106	-4	109
Cc1ccccc1OCC(=O)Nc1cccc(-c2nnc(-c3ccco3)o2)c1	-38	102	107	106
Cc1ccc(NC(=O)C2CCCN(S(=O)(=O)N3CCOCC3)C2)cc1Cl (stereo unspecified)	-19	104	-11	104
CC1CCN(C(=O)CN2c3cccc4cccc(c34)S2(=O)=O)CC1	-18	100	3	101
O=C(c1cnn(-c2ccccc2)n1)N1CCCSc2ccccc21	-9	96	11	98
Cn1nc(C(=O)NN2CC(=O)NC2=O)c2ccccc2c1=O	-3	106	4	104
COC(=O)C1=C(CN2CCc3ccccc32)NC(=O)NC1c1cccc(OC)c1 (stereo unspecified)	-5	102	4	103
O=C1CC(=O)N(Cc2ccco2)C(=O)N1	-40	104	-11	107
COC(C)C(O)(C(=O)OCC1=CCN2CC[C@H](O)[C@@H]12)C(C)C (stereo partly specified)	-9	100	-20	100
COC(=O)c1c(C)n(CCC2=CCCCC2)c2ccc(O)cc12	-28	103	-24	104
CCCc1nc2sc3c(c2c(=O)[nH]1)CCCC3	-7	105	·	111
COc1ccc(Cc2nnc(SCCN3C(=O)c4ccccc4C3=O)n2N)cc1	-16	103	16	106

# Entries of single compounds as entered above.
# `Cc1ccc(/C=C2/C(=O)NC(=O)N(C3CCCCC3)C2=O)cc1` reads Mtb MenB inh = 3; Polio RdRp inh = 99; Mtb MbtI inh = 6; Polio RdRp inh intensity = 104
# `[O-][n+]1onc2c1CCc1nnccc1-2` reads Mtb MenB inh = -9; Polio RdRp inh = 100; Mtb MbtI inh = 0; Polio RdRp inh intensity = 102

# Fetched by structure from the entries so far (4):
SMILES	Mtb MenB inh	Polio RdRp inh	Mtb MbtI inh	Polio RdRp inh intensity
Cc1ccc(/C=C2/C(=O)NC(=O)N(C3CCCCC3)C2=O)cc1	3	99	6	104
Cc1ccccc1OCC(=O)Nc1cccc(-c2nnc(-c3ccco3)o2)c1	-38	102	107	106
Cn1c(-c2ccc(F)cc2)nc2ccccc21	·	102	16	103
CC(C)[C@H](NC(=O)c1ccccc1)C(=O)N1CCN(c2ccccc2)CC1	3	106	-4	109

# New compounds follow
SMILES	Mtb MenB inh	Polio RdRp inh	Mtb MbtI inh	Polio RdRp inh intensity
COc1ccc(C2NCCc3cc(OC)c(OC)cc32)cc1 (stereo unspecified)	-5	105	·	114
Cc1cc(NC(=O)C2CCN(C(=O)OCc3ccccc3)CC2)n(C)n1	4	100	-8	105
O=C(OCc1ccccc1)/C(=C/c1cccs1)c1cccs1	-12	108	-11	110
COC(=O)Cn1c(O)c(N=NC(=O)Cn2nnc3ccccc32)c2ccccc21	-44	102	-7	107
COC(=O)/C=C1/OC(c2ccc(Cl)cc2)=CC1=O	-58	108	100*	123
CCC(C)NC(=O)c1cc(-c2ccc(OC)c(OC)c2)no1 (stereo unspecified)	-2	101	-69	102
CCOC(=O)c1cnn(-c2ccccc2)c1NC(=O)C(C)(C)C	-7	106	·	108
CCOC(=O)C1CCCN(C(=O)CSc2ccc(Br)cc2)C1 (stereo unspecified)	-20	102	3	105
COC(=O)c1c(C)oc(C)c1S(=O)(=O)Nc1c(-c2ccccc2)c(C(F)(F)F)nn1C	11	100	24	97
CCC(CC)N1CCN(S(=O)(=O)c2ccc(NC(C)=O)cc2)CC1	-27	102	-2	100
CC(=O)N1c2ccc(C)cc2C2=NNC(=S)NC21O (stereo unspecified)	-45	100	4	103
CC(=O)OCC(=O)[C@@]1(O)CC[C@H]2[C@@H]3CCC4=CC(=O)CC[C@]4(C)[C@@]3(F)[C@@H](O)C[C@@]21C	-11	97	-11	98
O=S(=O)(Nc1ccccc1)c1ccccc1	·	100	-3	105
CN1/C(=C\C(=O)COC(=O)C(C)(C)C)C(C)(C)c2ccccc21	·	103	-6	100
CCOC(=O)c1c(N2C(=O)C=CC2=O)sc(C)c1-c1ccccc1	-14	108	77*	112

# Reprinted from the part before: 2 entries, followed by the next part.
SMILES	Mtb MenB inh	Polio RdRp inh	Mtb MbtI inh	Polio RdRp inh intensity
CN1/C(=C\C(=O)COC(=O)C(C)(C)C)C(C)(C)c2ccccc21	·	103	-6	100
CCOC(=O)c1c(N2C(=O)C=CC2=O)sc(C)c1-c1ccccc1	-14	108	77*	112
CN(C)S(=O)(=O)c1ccc2nnn(OCC(=O)NCc3ccco3)c2c1	2	103	10	98
CCOC(=O)c1oc2ccccc2c1COC(=O)Cn1cnnn1	-10	104	46	105
CCc1ccccc1NC(=O)C1CC(c2ccccc2OC)=NO1 (stereo unspecified)	-20	99	5	103
Nc1cccc(OCC(=O)N2CCOCC2)c1	7	99	-16	104
S=C(c1ccc(-c2ccc(Cl)cc2)o1)N1CCN(c2ccccc2)CC1	-16	63*	·	70*
CNC(=O)/C(C#N)=C/N(C)C	-5	98	12	95
COc1cc(SC)ccc1C(=O)N(C)C1CCN(C)CC1	-9	-3.0*	2	21*
COc1ccc(-c2ncnn2-c2cccc(Cl)c2)cc1OC	-5	100	-5	102
COc1cccc(NC(=O)Nc2c(C)nc3nc[nH]n3c2=O)c1	-11	101	1	101
CNC1C(O)C2O[C@H](OC3C(N)C[C@@H](N)C(O)[C@H]3O)C(N)C[C@H]2O[C@@H]1O[C@H]1OC(CO)[C@@H](N)[C@H](O)C1O (stereo partly specified)	-2	96	-18	100
CN1C(=O)/C(=C\c2ccccc2)Sc2ccc(C(=O)NC3CCCCC3)cc21	-2	103	1	100
O=C(NC(=O)c1ccccc1Cl)OCc1cccc(Oc2ccccc2)c1	3	102	-13	103
COc1ccc2oc(=O)cc(CN(C)c3c(C)cc(C)cc3C)c2c1	-40	103	-3	105
CN1CCN(C(=O)/C=C/c2c(Cl)nc3ccccn23)CC1	-24	102	18	100
COc1ccc(-c2noc(CC(=O)N3CCN(c4ccccn4)CC3)n2)cc1	-14	103	-22	106
CCOC(=O)N1CCC(NC(=O)c2cc(S(=O)(=O)N3CCC4(CC3)OCCO4)ccc2F)CC1	-10	100	-19	103
O=C(CSc1nc(=O)n(CCCN2CCOCC2)c2c1CCC2)Nc1nccs1	-17	105	-7	101
CCOC(=O)c1oc2cc(O)c(CC)cc2c(=O)c1-c1ccc2c(c1)OCCO2	3	105	-2	105
Cc1sc2ncnc(SC(F)F)c2c1C	6	103	-9	99
O=C(CSCCCc1nc(-c2ccccc2)no1)Nc1ccc(F)c(F)c1	-4	105	20	105
CCOC(=O)c1nnn(-c2cccc(C)c2C)c1C(=O)OCC	-3	103	5	103
Cc1cc2nc3s/c(=C4\C(=O)N(CC(=O)O)c5ccccc54)c(=O)n3c2cc1C	-39	101	-3	100
O=C(CC1CC2CCC1C2)NCc1ccccc1C(F)(F)F (stereo unspecified)	-7	101	-4	98
COC(=O)CC1C(=O)NCCN1C(=O)c1ccccc1 (stereo unspecified)	-9	102	-2	102
